Source: PubChem BioAssay (National Center for Advancing Translational Sciences (NCATS))
TRPML1 inh = human mucolipin-1 channel inhibition; Q9GZU1; activity change, negative = inhibition, % (no concentration beside the values); 390,000 compounds, 0.02% hits; TRPML1-inducible cells, Ca2+ dye fluorescence, FDSS; hits give low values; inhibition of EC80 agonist-evoked calcium signal; in the data active means activity change below about -50%; inconclusive means about -30% to -50%; inactive means above about -30%;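 further: stimulus is agonist 54-4 at its EC80 concentration; on the % scale 0 is the no-effect control and ±100 the full control effect; compound concentration not given in the record; the text of the record puts the active cut at -80%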
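TRPML1-DL cells, Tet-induced overnight (~16 h, 37 °C) at 1,500 cells/well, were loaded with Ca8 no-wash dye plus quencher for 45-90 min at room temperature. Compounds were pinned during FDSS kinetic reading; agonist 54-4 at EC80 (4 uM final) then added.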
Sfp PPTase inh = Sfp phosphopantetheinyl transferase inhibition | Q9F4F7 | Biochemical Sfp PPTase activity, qHTS | Potency, µM, for inactives: max response, negative = inhibition, hits mostly inhibitors | 310,000 compounds, 3.5% hits | AID 1490; active means well fitted inhibition curve with a large enough effect; inconclusive means small, poorly fitted or top-dose-only effect, or another doubt; inactive means no such curve, though single readings can be large or run the other way;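 further: the enzyme is Sfp with the accession as filed and its product quenches rhodamine fluorescence; potency means the concentration at half of the fitted maximal effect; 0% = enzyme reaction without inhibitor and -100% = no enzyme wells; top concentration of the series not given in the record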
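After 15 min at room temperature with compound, 15 nM Sfp received 5 uM rhodamine-CoA plus 12.5 uM BHQ-2-ybbR (50 mM Hepes pH 7.6, 10 mM MgCl2). Rate came from the fluorescence difference over 30 min, ex 525/em 598 nm.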
gsp ag = agonists of gsp mutant (McCune-Albright syndrome) | 340,000 compounds, 0.13% hits | gsp mutant cells, cAMP HTRF, 30 min; control for the full effect not named in the record | AID 624287 | Potency, µM (doses to about 76.9 µM), inactives show top-dose activation (cAMP increase), most hits filed as activators; active = well fitted activation curve with a large enough effect; inconclusive = small, poorly fitted or top-dose-only effect, or another doubt; inactive = no such curve, though single readings can be large or run the other way; cell line not stated here;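 further: phosphodiesterase inhibitor Ro 20-1724 added with compounds to block cAMP breakdown; potency means the concentration at half of the fitted maximal effect; nearly all actives have a fitted effect of over 60% in size; about a fifth of the inactives were tested at one dose only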
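Cells in DMEM/10% FBS with G418 were pretreated with compounds in DMSO plus […] (300 uM stock) for 30 min at 37C. cAMP was measured by HTRF (cAMP-d2 plus anti-cAMP antibody-K) after 30 min at room temperature.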
TRPV1 potentiator = human TRPV1 potentiation; 320,000 compounds, 0.02% hits; TRPV1-expressing cells, Fluo-8 calcium influx, capsaicin EC20 potentiation; host cell line not named in the record; control for the full effect not named in the record; Q8NER1; potentiation, % at 8.33 µM; active means potentiation above 80%; inconclusive means 30% to 80%; inactive means below 30%; further: 0% is about no effect
Target sequence (Q8NER1 whole entry, looked up): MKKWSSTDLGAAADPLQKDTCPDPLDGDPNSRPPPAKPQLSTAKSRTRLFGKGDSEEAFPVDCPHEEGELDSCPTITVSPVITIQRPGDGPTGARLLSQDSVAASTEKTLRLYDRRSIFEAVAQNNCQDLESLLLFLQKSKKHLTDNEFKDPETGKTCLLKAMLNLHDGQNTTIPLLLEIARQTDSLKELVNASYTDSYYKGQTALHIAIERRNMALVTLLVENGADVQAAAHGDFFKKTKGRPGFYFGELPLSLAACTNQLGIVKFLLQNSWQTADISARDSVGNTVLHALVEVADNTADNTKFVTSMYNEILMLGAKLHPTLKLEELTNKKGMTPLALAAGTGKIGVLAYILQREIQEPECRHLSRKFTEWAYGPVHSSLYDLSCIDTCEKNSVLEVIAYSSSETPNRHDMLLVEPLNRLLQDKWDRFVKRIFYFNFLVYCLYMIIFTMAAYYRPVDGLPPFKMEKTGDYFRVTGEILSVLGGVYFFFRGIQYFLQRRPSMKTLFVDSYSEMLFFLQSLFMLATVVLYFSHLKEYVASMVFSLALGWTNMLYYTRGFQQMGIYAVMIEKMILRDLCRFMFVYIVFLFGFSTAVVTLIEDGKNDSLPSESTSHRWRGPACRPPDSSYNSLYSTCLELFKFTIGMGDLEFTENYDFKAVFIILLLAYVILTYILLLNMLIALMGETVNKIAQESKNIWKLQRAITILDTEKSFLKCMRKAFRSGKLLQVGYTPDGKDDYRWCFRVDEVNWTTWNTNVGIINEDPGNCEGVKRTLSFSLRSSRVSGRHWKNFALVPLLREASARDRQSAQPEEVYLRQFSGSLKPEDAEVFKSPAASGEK
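Cells expressing TRPV1 were dye-loaded with Fluo-8 and read kinetically: 10 s baseline, 3 min after compound (agonist portion), then 2 min after EC20 capsaicin (allosteric enhancer portion). Calcium-bound dye fluorescence at 480/520 nm.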
Menin MLL FP FL = displaces fluorescein MLL peptide from human menin; 290,000 tested, under 10 active; Fluorescence polarization, fluorescein-MLL peptide displacement from menin; FP activity change, % at 61.4 µM; inconclusive = falling polarisation curve, or a change in total fluorescence; inactive = total fluorescence flat and polarisation flat or rising; no compound was filed as active; the % refers to the polarisation; negative = inhibition;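 further: % of control where 0% means no effect; inhibitors lower the polarisation; unlabelled MLL peptide was the positive control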
ClpP mod = qHTS Assay for Activators of ClpP; Potency, µM (titrated, usually from 57.5 µM), without a hit: top-dose activity change, negative = active; purified B. subtilis ClpP, FRET peptide cleavage, 20 min; AID 651965, 2013; ATP-dependent Clp protease proteolytic subunit (Bacillus subtilis (strain 168)), P80244; 340,000 compounds, 1.9% hits; active = well fitted falling curve with a large enough effect; inconclusive = small, poorly fitted or top-dose-only effect; inactive = no such curve, though single readings can be large or run the other way; further: potency means the concentration at half of the fitted maximal effect; the source files actives as falling curves though it sought activators and does not explain the sign; nearly all actives have a fitted effect of over 65% in size; many hits overshoot -100%
Target sequence (P80244 whole entry, looked up): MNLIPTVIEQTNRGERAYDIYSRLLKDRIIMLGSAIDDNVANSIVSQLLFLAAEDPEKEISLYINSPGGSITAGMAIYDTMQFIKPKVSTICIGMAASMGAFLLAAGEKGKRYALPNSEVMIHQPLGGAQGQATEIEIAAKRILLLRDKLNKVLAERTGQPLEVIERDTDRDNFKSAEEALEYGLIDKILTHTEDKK
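FRET quenching reversal measured ClpP activation: 10 microg/mL B. subtilis ClpP at pH 8 with the FRET-FV decapeptide, read at 430 nm after 320 nm excitation. The 20-min minus 0-min signal was scaled between DMSO/no-enzyme wells and ADEP (5.8 microM final).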
gsp antag = antagonists of gsp mutant (McCune-Albright syndrome) | gsp-mutant cells, cAMP HTRF, 30 min; control for the full effect not named in the record | Potency, µM (top dose mostly 76.9 µM), for the others: at the highest dose activity change, negative = inhibition, hits mostly inhibitors | 340,000 compounds, 0.4% hits | AID 624288; active = falling curve of any shape with a large fitted effect; inconclusive = falling curve, mostly with a smaller effect; inactive = flat or rising curve; cell line not stated here;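 further: intracellular cAMP measured with PDE inhibitor Ro 20-1724 present during compound exposure; potency means the concentration at half of the fitted maximal effect; on the % scale 0 is the no-effect control and ±100 the full control effect; nearly all actives have a fitted effect of over 65% in size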
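Cells, 2000/well, grown 16–24 h in DMEM 10% FBS with 0.5 mg/ml G418, then compounds plus […] (300 uM addition stock), 30 min at 37C. cAMP read by HTRF (cAMP-d2 and anti-cAMP antibody-K in lysis buffer) after 30 min RT.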
Starred values were filed as active, the others as inactive; ? = inconclusive; / = no result given; & = joins results of further samples; [ ] = remark or other dose.

SMILES	TRPML1 inh	Sfp PPTase inh	gsp ag	TRPV1 potentiator	Menin MLL FP FL	ClpP mod	gsp antag
CCOC(=O)CCc1n[nH]c(=O)[nH]c1=O	-18	3%	11%	3	-3.3	0.9%	-8%
O=C1[C@H]2[C@@H](c3ccc(C(F)(F)F)cc3)N[C@]3(CCCN(Cc4ccco4)C3=O)[C@H]2C(=O)N1Cc1ccccc1	-9	/	?	/	/	1.6%	/
O=C(CN1CCOCC1)Nc1nc2cc([N+](=O)[O-])ccc2s1	-11	11%	14%	-3	1.0	0.8%	-2%
CC(Sc1nnc(C2CC2)n1C1CC1)C(=O)NC1(C#N)CCCCC1 (configuration not stated)	0	/	6%	-5	/	?	6%
O=C(CCNS(=O)(=O)c1ccccc1C(F)(F)F)NC1CCCCCC1	3	/	-10%	-1	/	-5.8%	3%
COc1ccccc1-c1coc2c(CN3C(C)CCCC3C)c(O)ccc2c1=O (configuration not stated)	-13	1%	-27%	-4	0.5	4.8%	-3%
COc1ccccc1C(=O)N(Cc1sccc1C)C1CCS(=O)(=O)C1 (configuration not stated)	23	9%	22%	12	-2.1	-0.5%	8%
NC(=O)c1ccsc1NC(=O)COC(=O)COc1ccc(C=O)cc1	17	/	12%	-2	/	-0.6%	-1%
COC(=O)/C=C1/S/C(=N/NC(=O)c2ccc(Cl)cc2Cl)NC1=O	-10	1%	-1%[15.4 µM]	4	3.0	/	-23%
Cc1nc2cc(Nc3ccncc3)ccc2s1	-1	8%	3%[15.4 µM]	1	-6.0	/	2%
O=C(CCN1C(=O)c2cccc3cccc(c23)C1=O)NC1CCS(=O)(=O)C1 (configuration not stated)	-8	0%	6%[15.4 µM]	6	-1.6	/	15%
CCCCCNC(=O)C1c2ccccc2Oc2ccccc21	5	8%	-15%	1	5.0	0.1%	7%
COc1cccc(NC(=O)Nc2ccc3nc(C)c(C)nc3c2)c1	-17	15%	27%	?	-1.2	/	9%
COc1ccc(NC(=O)Nc2cccnc2)cc1	9	16%	-1%[15.4 µM]	-6	-4.6	0.6%	10%
COc1ccc(OC)c(NC(=O)CN(c2ccc(C)cc2)S(=O)(=O)c2c(C)n[nH]c2C)c1	-7	5%	?	-6	2.1	/	?
CCOc1nc(NC2CCCC2)nc(N2CCC(C)CC2)n1	-2	10%	-2%[15.4 µM]	0	-0.8	-1.2%	-10%
CSc1nnc(SCC(=O)Nc2ccc3[nH]c(=O)[nH]c3c2)s1	-6	/	-32%[inhibitor]	-11	/	-0.5%	-5%
Cc1ccc(S(=O)(=O)NNC(=O)C(=O)NNc2ccccn2)cc1	-3	8%	-4%	-3	-4.7	1.5%	18%
Cc1cccc(C(=O)NC(=S)Nc2ccc(Cc3ccncc3)cc2)c1	2	-29%	-39%[inhibitor]	28	1.2	-1.9%	?
CC(C)Cc1nc(SCC(=O)N2CCCC2)c2c(=O)n(C)c(=O)n(C)c2n1	-3	11%	?	-3	/	0.5%	?
Cc1ccc(C2Nc3ccccc3NC3=C2C(=O)OC(C)C3)cc1 (configuration not stated)	39	6%	1%[15.4 µM]	10	1.0	-1.1%	1%
CC1(C)C(c2ccccc2)=[N+]([O-])CN1O	3	17%	?	-9	0.7	0.3%	3%
COCOCCn1cc(CN2CCS(=O)(=O)N(Cc3ccc(-c4ccncc4)cc3)C(C(C)C)C2=O)nn1 (configuration not stated)	3	/	-44%[inhibitor]	/	/	-8.1%	/
O=C1CNC(=O)/C1=C\N1CCN(C(c2ccccc2)c2ccccc2)CC1	6	-7%	?	-7	2.7	-4.0%	8%
Cc1ccc(C(CCNC(C)c2cccs2)c2ccco2)cc1 (configuration not stated)	9	3%	0%[15.4 µM]	?	-0.7	/	-4%

Given as a markdown table: part of the list above
| smiles | TRPML1 inh | Sfp PPTase inh | gsp ag | TRPV1 potentiator | Menin MLL FP FL | ClpP mod | gsp antag |
| --- | --- | --- | --- | --- | --- | --- | --- |
| CCCCCNC(=O)C1c2ccccc2Oc2ccccc21 | 5 | 8% | -15% | 1 | 5.0 | 0.1% | 7% |
| COc1cccc(NC(=O)Nc2ccc3nc(C)c(C)nc3c2)c1 | -17 | 15% | 27% | ? | -1.2 | / | 9% |
| COc1ccc(NC(=O)Nc2cccnc2)cc1 | 9 | 16% | -1%[15.4 µM] | -6 | -4.6 | 0.6% | 10% |
| COc1ccc(OC)c(NC(=O)CN(c2ccc(C)cc2)S(=O)(=O)c2c(C)n[nH]c2C)c1 | -7 | 5% | ? | -6 | 2.1 | / | ? |
| CCOc1nc(NC2CCCC2)nc(N2CCC(C)CC2)n1 | -2 | 10% | -2%[15.4 µM] | 0 | -0.8 | -1.2% | -10% |

(list continues)
SMILES	TRPML1 inh	Sfp PPTase inh	gsp ag	TRPV1 potentiator	Menin MLL FP FL	ClpP mod	gsp antag
C#CCNc1cc(C)nc2ncnn12	15	1%	-2%	5	0.3	-2.4%	11%
COc1cccc(NC(=O)C(C)N2C(=O)c3ccccc3S2(=O)=O)c1 (configuration not stated)	-7	/	-27%	17	/	-4.2%	5%
COc1ccc(/C=N/Nc2nncc3ccccc23)c(OC)c1	14	-17%	-13%	6	4.7	1.3%	-3%
Cc1cc(-c2n[nH]c(=S)n2/N=C/c2ccc(Br)s2)n[nH]1	2	-20%	-6%	-4	-0.6	-3.3%	?
CN1CCN(C(=O)C2=C[C@H](c3ccccc3)C[C@H](OCc3ccc(CO)cc3)O2)CC1	4	13%	-61%[inhibitor]	2	-0.3	0.3%	-3%
CC(=NNC(=O)c1ccncc1)c1ccc2ccccc2c1O	-21	/	?	/	/	2.8%	7%
Cc1c(C(=O)OC(C)C)sc(NC(=O)c2cnccn2)c1C(=O)OC(C)C	35	/	-18%	/	/	-8.6%	6%
CCOc1ccc(NC(=O)CSc2nnc(CNC(=O)c3ccco3)o2)cc1	26	10%	-8%	-2	-0.1	1.2%	6%
COc1ccccc1NC(=O)CSc1nc(O)cc(=O)n1-c1ccccc1OC	-13	2%	-51%[inhibitor]	/	?	-1.9%	-6%
COCCCn1c(SCC(=O)N2CCc3ccccc32)nnc1-c1ccco1	2	-11%	-32%[inhibitor]	-11	-1.9	-2.4%	-9%
CN(C)C(=O)NC1CCCCCCCCCCC1	7	10%	-1%	-21	6.6	0.1%	1%
COC(=O)c1ccc(C)c(NC(=O)C(CCSC)NC(=O)c2cc(OC)c(OC)c(OC)c2)c1 (configuration not stated)	-6	18%	-19%	13	-1.8	/	-13%
CCC(=O)c1ccccc1OCCCn1cncn1	8	6%	21%	/	6.2	-8.2%	-1%
CCOc1c(C)cc(-c2ncccc2O)cc1C	-5&-13	3%&3%	?	-11&5	-0.7&-4.4	28µM*	1%&20%
COc1ccc2ccccc2c1/C=N/O	22	12%	?	13	-3.4	-17%	8%
Cc1nc2ccc(NC(=O)c3ccccc3)cc2c(=O)n1Cc1ccc(F)cc1	-9	/	7%	/	/	-3.2%	/
CSc1nc(NC(C)(C)C)nc(Oc2ccc(=O)[nH]n2)n1	-16	0%	-22%	15	0.5	-1.8%	-2%
Cc1n[nH]c(=O)c2c(NC(=O)COC(=O)/C=C/c3cccc(C(F)(F)F)c3)oc(C)c12	-22	/	?	11	/	-3.6%	-14%
O=C(CCCC(=O)c1ccc(F)cc1)c1ccc(F)cc1	54	-1%	-9%[15.4 µM]	-20	-1.0	-1.2%	2%
Cc1cccc(N=Nc2c(N)n[nH]c2N)c1	2	5%	2%	4	-1.1	-0.5%	10%
O=C(c1cc(-c2ccc(Br)cc2)nc2ccccc12)N1CCC1	4	/	-9%[15.4 µM]	3	/	0.5%	-11%
Cc1cc(C)c2c(-c3ccc(F)cc3)c(C#N)c(=O)n(C)c2n1	32	10%	12%[15.4 µM]	0	0.1	/	-8%
CCOc1c(CNCc2ccc(C(=O)O)cc2)cccc1OC	-19	-4%	-24%	4	-3.7	/	5%
Cc1cccc(NC(=O)c2cnc3sccn3c2=O)c1C	/	12%	/	11	-3.2	/	/
O=C(CSc1ccccn1)Nc1nc2ccccc2s1	-2	16%	-2%	1	-2.2	0.1%	-12%
COC(=O)c1c(NC(=O)CSc2nc3ccccc3c(=O)n2Cc2ccco2)sc(C)c1C	6	-14%	-2%[15.4 µM]	1	1.2	1.0%	4%
Cc1nc2c(o1)CCc1ccccc1C2O (configuration not stated)	-2	3%	?	4	0.9	-0.2%	4%
Cc1csc(SCC(=O)NC(=O)c2ccccc2)n1	7	/	10%[15.4 µM]	15	/	/	-6%

Arranged by the number under gsp ag (lowest first): three of the compounds above
Molecule | gsp ag
CCOc1ccc(NC(=O)CSc2nnc(CNC(=O)c3ccco3)o2)cc1 | -8%
Cc1cc(-c2n[nH]c(=S)n2/N=C/c2ccc(Br)s2)n[nH]1 | -6%
C#CCNc1cc(C)nc2ncnn12 | -2%

Retrieved one by one from the entries so far, 2 records:
SMILES	TRPML1 inh	Sfp PPTase inh	gsp ag	TRPV1 potentiator	Menin MLL FP FL	ClpP mod	gsp antag
CCC(=O)c1ccccc1OCCCn1cncn1	8	6%	21%	/	6.2	-8.2%	-1%
COc1cccc(NC(=O)Nc2ccc3nc(C)c(C)nc3c2)c1	-17	15%	27%	?	-1.2	/	9%
